Screening data deposited in PubChem BioAssay by Broad Institute.
Ran FRET: inhibitors of Ran–importin-beta complex formation, primary screen, biochemical, CFP-Ran/YFP-importin-beta FRET, RCC1, cell-free (AID 434961); Regulator of chromosome condensation (Homo sapiens) + GTP-binding nuclear protein Ran …; CFP-Ran/YFP-importin-beta FRET, cell-free; active compounds read high; inhibition, %; 7,700 compounds, 0.2% hits;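 active means more than half of the replicate wells above 15% inhibition; inconclusive means exactly half above it; inactive means fewer than half above it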;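 further: 0% = DMSO wells and 100% inhibition = RanGDP control wells on each plate; stock of unstated strength diluted about 400-fold; mean of two wells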
* = called active by the depositor; ? = inconclusive. A portion of the library; the hit share may differ from the screen's.

SMILES	Ran FRET
C[C@@H]1CN([C@@H](C)CO)C(=O)c2cc(NC(=O)c3ccncc3)ccc2O[C@@H](C)CCCCO[C@@H]1CN(C)C(=O)Nc1cccc2ccccc12	1.3
CCCN(C)C[C@@H]1OCCCC[C@@H](C)Oc2ccc(NS(=O)(=O)c3ccc(OC)cc3)cc2C(=O)N([C@@H](C)CO)C[C@@H]1C	-1.6
C[C@H](CO)N1C[C@H](C)[C@H](CN(C)Cc2ccccc2)OCCCC[C@H](C)Oc2ccc(NS(=O)(=O)c3cccs3)cc2C1=O	-5.1
C[C@@H]1CN([C@@H](C)CO)C(=O)c2cc(NC(=O)c3ccncc3)ccc2O[C@H]1CN(C)C(=O)Nc1ccccc1	4.5
C[C@@H]1CCCCO[C@@H](CN(C)S(=O)(=O)c2cn(C)cn2)[C@@H](C)CN([C@H](C)CO)C(=O)c2cc(NS(C)(=O)=O)ccc2O1	-4.8
C[C@@H]1CN([C@@H](C)CO)C(=O)Cc2cc(NC(=O)NC3CCCCC3)ccc2O[C@@H]1CN(C)S(=O)(=O)c1ccccc1	2.7
C[C@H]1CN([C@@H](C)CO)C(=O)CCCn2cc(nn2)CO[C@@H]1CN(C)C(=O)Nc1ccccc1F	-2.0
C[C@H](CO)N1C[C@H](C)[C@H](CN(C)Cc2ccncc2)OCc2cnnn2CCCC1=O	-2.0
Cc1noc(C)c1S(=O)(=O)Nc1ccc2c(c1)C(=O)N([C@@H](C)CO)C[C@@H](C)[C@@H](CN(C)C(=O)Nc1ccccc1)O2	2.3
C[C@@H]1CCCCO[C@@H](CN(C)C(=O)C2CCCCC2)[C@H](C)CN([C@@H](C)CO)C(=O)c2cc(NS(=O)(=O)c3ccccc3)ccc2O1	1.0
C[C@@H]1CN([C@@H](C)CO)C(=O)Cc2cc(NS(C)(=O)=O)ccc2O[C@H]1CN(C)S(=O)(=O)c1cccs1	-5.1
CNC[C@@H]1Oc2c(NC(=O)C3CCOCC3)cccc2C(=O)N([C@@H](C)CO)C[C@@H]1C	-7.6
C[C@@H]1CN([C@H](C)CO)C(=O)Cc2cc(NS(=O)(=O)c3cn(C)cn3)ccc2O[C@@H]1CN(C)S(=O)(=O)c1ccc(Cl)cc1	-3.0
C[C@@H]1CCCCO[C@@H](CN(C)C(=O)c2ccccc2)[C@H](C)CN([C@H](C)CO)C(=O)c2cc(NS(C)(=O)=O)ccc2O1	0.0
Cc1noc(C)c1S(=O)(=O)Nc1ccc2c(c1)CC(=O)N([C@@H](C)CO)C[C@H](C)[C@H](CN(C)C)O2	-2.5
C[C@@H]1CCCCO[C@H](CN(C)S(C)(=O)=O)[C@@H](C)CN([C@@H](C)CO)C(=O)c2cc(NC(=O)Nc3ccccc3)ccc2O1	1.1
C[C@H](CO)N1C[C@H](C)[C@@H](CN(C)C(=O)Nc2ccc(C(F)(F)F)cc2)Oc2c(NC(=O)Nc3cccc4ccccc34)cccc2C1=O	-0.5
C[C@@H]1CN([C@@H](C)CO)C(=O)c2cc(NS(C)(=O)=O)ccc2O[C@@H](C)CCCCO[C@@H]1CN(C)C(=O)Nc1ccc(C(F)(F)F)cc1	-1.1
C[C@H]1CN([C@@H](C)CO)C(=O)c2cc(N(C)C)ccc2O[C@@H]1CN(C)S(=O)(=O)c1cn(C)cn1	4.3
COc1ccc(CN(C)C[C@@H]2Oc3ccc(NC(=O)Cc4ccccc4)cc3CC(=O)N([C@@H](C)CO)C[C@H]2C)cc1	-1.9

Filtered by structure, the compounds so far containing a halogen.
SMILES	Ran FRET
C[C@H]1CN([C@@H](C)CO)C(=O)CCCn2cc(nn2)CO[C@@H]1CN(C)C(=O)Nc1ccccc1F	-2.0
C[C@@H]1CN([C@H](C)CO)C(=O)Cc2cc(NS(=O)(=O)c3cn(C)cn3)ccc2O[C@@H]1CN(C)S(=O)(=O)c1ccc(Cl)cc1	-3.0
C[C@H](CO)N1C[C@H](C)[C@@H](CN(C)C(=O)Nc2ccc(C(F)(F)F)cc2)Oc2c(NC(=O)Nc3cccc4ccccc34)cccc2C1=O	-0.5
C[C@@H]1CN([C@@H](C)CO)C(=O)c2cc(NS(C)(=O)=O)ccc2O[C@@H](C)CCCCO[C@@H]1CN(C)C(=O)Nc1ccc(C(F)(F)F)cc1	-1.1

Next part:
SMILES	Ran FRET
C[C@H](CO)N1C[C@H](C)[C@@H](CN(C)S(=O)(=O)c2cn(C)cn2)Oc2c(NC(=O)c3ccncc3)cccc2C1=O	-6.4
Cc1noc(C)c1NC(=O)N(C)C[C@@H]1OCCCC[C@H](C)Oc2ccc(NS(=O)(=O)c3cn(C)cn3)cc2C(=O)N([C@@H](C)CO)C[C@H]1C	0.4
C[C@H](CO)N1C[C@H](C)[C@H](CN(C)S(=O)(=O)c2cn(C)cn2)Oc2ccc(NC(=O)Nc3ccccc3)cc2CC1=O	-0.4
C[C@@H]1CN([C@@H](C)CO)C(=O)CCCn2cc(nn2)CO[C@H]1CN(C)C(=O)Nc1cccc2ccccc12	1.2
C[C@H]1CN([C@@H](C)CO)C(=O)CCCn2cc(nn2)CO[C@@H]1CN(C)C(=O)Nc1ccnc(N2CCOCC2)c1	0.9
COc1ccc(S(=O)(=O)N(C)C[C@H]2Oc3c(NS(=O)(=O)c4cn(C)cn4)cccc3C(=O)N([C@H](C)CO)C[C@H]2C)cc1	0.8
CNC[C@@H]1OCCCC[C@H](C)Oc2ccc(NS(=O)(=O)c3ccccc3)cc2C(=O)N([C@H](C)CO)C[C@@H]1C	0.2
C[C@H](CO)N1C[C@H](C)[C@@H](CN(C)C(=O)Nc2ccc3c(c2)OCO3)Oc2ccc(NS(=O)(=O)c3ccccc3)cc2CC1=O	-0.8
COc1ccc(S(=O)(=O)N(C)C[C@@H]2Oc3ccc(NC(=O)Cc4ccccc4)cc3CC(=O)N([C@H](C)CO)C[C@@H]2C)cc1	-1.5
COc1ccc(S(=O)(=O)N(C)C[C@H]2Oc3ccc(NS(=O)(=O)c4cn(C)cn4)cc3CC(=O)N([C@H](C)CO)C[C@H]2C)cc1	-1.5
C[C@H](CO)N1C[C@H](C)[C@H](CN(C)S(=O)(=O)c2ccccc2)Oc2ccc(NC(=O)NC3CCCCC3)cc2CC1=O	-0.6
C[C@H](CO)N1C[C@H](C)[C@@H](CN(C)C)Oc2ccc(NC(=O)Nc3ccc(F)cc3)cc2C1=O	-2.3
Cc1ccc(OC(=O)N(C)C[C@H]2OCc3cn(nn3)CCCC(=O)N([C@H](C)CO)C[C@H]2C)cc1	-1.8
C[C@H]1CN([C@@H](C)CO)C(=O)c2cc(NC(=O)C3CC3)ccc2O[C@H]1CN(C)C	?
C[C@@H]1CN([C@H](C)CO)C(=O)c2cccc(NC(=O)c3ccncc3)c2O[C@H]1CN(C)Cc1ccc2c(c1)OCO2	4.7
COc1ccc(S(=O)(=O)Nc2ccc3c(c2)C(=O)N([C@H](C)CO)C[C@@H](C)[C@H](CN(C)S(=O)(=O)c2cccs2)O3)cc1	1.6
C[C@@H]1CN([C@H](C)CO)C(=O)c2cccc(NC(=O)NC3CCCCC3)c2O[C@H]1CN(C)Cc1ccc(C(=O)O)cc1	0.5
CC(C)NC(=O)Nc1ccc2c(c1)C(=O)N([C@@H](C)CO)C[C@H](C)[C@@H](CN(C)S(=O)(=O)c1ccccc1)OCCCC[C@@H](C)O2	-2.9
C[C@H](CO)N1C[C@H](C)[C@@H](CN(C)Cc2ccncc2)Oc2ccc(NC(=O)CCN3CCOCC3)cc2CC1=O	1.2
Cc1noc(C)c1NC(=O)Nc1ccc2c(c1)C(=O)N([C@@H](C)CO)C[C@@H](C)[C@@H](CN(C)C(=O)Nc1c(C)noc1C)O2	0.0
C[C@@H]1CCCCO[C@@H](CN(C)C(=O)C2CCCCC2)[C@H](C)CN([C@H](C)CO)C(=O)c2cc(NS(=O)(=O)c3ccccc3)ccc2O1	-4.4
C[C@H]1CN([C@@H](C)CO)C(=O)c2cc(NS(=O)(=O)c3ccccc3)ccc2O[C@@H]1CN(C)C	-1.3
C[C@@H]1CN([C@H](C)CO)C(=O)c2cc(NC(=O)Cc3ccccc3)ccc2O[C@@H](C)CCCCO[C@H]1CN(C)C(=O)CCC(F)(F)F	3.0
Cc1noc(C)c1NC(=O)Nc1ccc2c(c1)CC(=O)N([C@H](C)CO)C[C@@H](C)[C@@H](CN(C)C(=O)NC(C)C)O2	0.9
Cc1noc(C)c1NC(=O)N(C)C[C@H]1OCc2cn(nn2)CCCC(=O)N([C@H](C)CO)C[C@H]1C	-4.4
C[C@@H]1CN([C@H](C)CO)C(=O)Cc2cc(NC(=O)CCC(F)(F)F)ccc2O[C@@H]1CN(C)C(=O)Nc1cccc2ccccc12	9.6
C[C@@H]1CN([C@@H](C)CO)C(=O)c2cccc(NC(=O)C3CC3)c2O[C@H]1CN(C)Cc1ccccc1	0.2
C[C@@H]1CN([C@H](C)CO)C(=O)Cc2cc(NS(=O)(=O)c3cccs3)ccc2O[C@@H]1CN(C)S(=O)(=O)c1ccc(Cl)cc1	6.0
C[C@H](CO)N1C[C@H](C)[C@H](CN(C)C)OCCCC[C@H](C)Oc2ccc(NC(=O)Nc3cccc4ccccc34)cc2C1=O	-3.5
COc1ccc(CN(C)C[C@H]2Oc3ccc(NC(=O)C4CC4)cc3CC(=O)N([C@H](C)CO)C[C@H]2C)cc1	-8.0

The last three entries of the section above come first, to join the parts:
SMILES	Ran FRET
C[C@@H]1CN([C@H](C)CO)C(=O)Cc2cc(NS(=O)(=O)c3cccs3)ccc2O[C@@H]1CN(C)S(=O)(=O)c1ccc(Cl)cc1	6.0
C[C@H](CO)N1C[C@H](C)[C@H](CN(C)C)OCCCC[C@H](C)Oc2ccc(NC(=O)Nc3cccc4ccccc34)cc2C1=O	-3.5
COc1ccc(CN(C)C[C@H]2Oc3ccc(NC(=O)C4CC4)cc3CC(=O)N([C@H](C)CO)C[C@H]2C)cc1	-8.0
C[C@@H]1CN([C@@H](C)CO)C(=O)c2cccc(NC(=O)Nc3cccc4ccccc34)c2O[C@H]1CN(C)C(=O)NC1CCCCC1	-5.7
CNC[C@H]1Oc2ccc(NS(=O)(=O)c3ccccc3)cc2C(=O)N([C@H](C)CO)C[C@H]1C	1.4
Cc1noc(C)c1NC(=O)Nc1cccc2c1O[C@H](CN(C)Cc1ccc(C(=O)O)cc1)[C@H](C)CN([C@@H](C)CO)C2=O	1.0
C[C@@H]1CN([C@@H](C)CO)C(=O)c2cccc(NC(=O)c3ccncc3)c2O[C@H]1CN(C)C	2.3
COc1ccc(CN(C)C[C@@H]2Oc3ccc(NC(=O)Nc4ccc(F)cc4)cc3C(=O)N([C@H](C)CO)C[C@@H]2C)cc1	-0.2
COc1ccc(CN(C)C[C@@H]2OCCCC[C@@H](C)Oc3ccc(NC(=O)Nc4c(C)noc4C)cc3C(=O)N([C@@H](C)CO)C[C@@H]2C)cc1	-0.1
COc1ccc(S(=O)(=O)Nc2ccc3c(c2)CC(=O)N([C@@H](C)CO)C[C@H](C)[C@@H](CN(C)S(=O)(=O)c2ccc(OC)cc2)O3)cc1	-2.7
C[C@H]1CCCCO[C@H](CN(C)C(=O)CCCN(C)C)[C@@H](C)CN([C@@H](C)CO)C(=O)c2cc(NC(=O)Cc3ccccc3)ccc2O1	3.4
C[C@H](CO)N1C[C@H](C)[C@H](CN(C)C(=O)Nc2cccc3ccccc23)Oc2c(NC(=O)c3ccncc3)cccc2C1=O	4.0
CNC[C@@H]1Oc2ccc(NS(C)(=O)=O)cc2C(=O)N([C@@H](C)CO)C[C@H]1C	-0.2
Cc1noc(C)c1NC(=O)Nc1ccc2c(c1)C(=O)N([C@H](C)CO)C[C@@H](C)[C@H](CN(C)C(=O)NC1CCCCC1)O2	-3.1
C[C@H](CO)N1C[C@H](C)[C@@H](CN(C)C(=O)Nc2ccccc2)Oc2ccc(NC(=O)C3CC3)cc2C1=O	-2.4
COc1ccc(S(=O)(=O)Nc2ccc3c(c2)CC(=O)N([C@@H](C)CO)C[C@@H](C)[C@H](CN(C)Cc2ccc(C(F)(F)F)cc2)O3)cc1	?
C[C@@H]1CN([C@@H](C)CO)C(=O)c2cccc(NS(=O)(=O)c3cccs3)c2O[C@@H]1CN(C)Cc1ccc(C(=O)O)cc1	-4.0
C[C@H]1CN([C@@H](C)CO)C(=O)Cc2cc(NS(=O)(=O)c3ccc(Cl)cc3)ccc2O[C@@H]1CN(C)C(=O)NC1CCCCC1	6.2
C[C@@H]1CN([C@H](C)CO)C(=O)c2cccc(NC(=O)Nc3ccc(C(F)(F)F)cc3)c2O[C@H]1CN(C)C	-1.2
C[C@@H]1CN([C@H](C)CO)C(=O)c2cccc(NC(=O)C3CCOCC3)c2O[C@@H]1CN(C)C(=O)Nc1ccc(C(F)(F)F)cc1	-2.5
C[C@@H]1CN([C@H](C)CO)C(=O)c2cc(NC(=O)NC3CCCCC3)ccc2O[C@@H]1CN(C)C(=O)Nc1ccc(F)cc1	-1.8
CC(C)NC(=O)N(C)C[C@@H]1Oc2ncc(-c3ccccc3)cc2C(=O)N([C@H](C)CO)C[C@@H]1C	3.2
C[C@H]1CN([C@@H](C)CO)C(=O)Cc2cc(NS(=O)(=O)c3ccccc3)ccc2O[C@H]1CN(C)S(=O)(=O)c1cccs1	-6.9
C[C@H]1CN([C@@H](C)CO)C(=O)Cc2cc(N(C)C)ccc2O[C@H]1CN(C)S(=O)(=O)c1cn(C)cn1	1.3
C[C@@H]1CCCCO[C@H](CN(C)S(=O)(=O)c2cccs2)[C@H](C)CN([C@@H](C)CO)C(=O)c2cc(NS(C)(=O)=O)ccc2O1	?
C[C@@H]1CCCCO[C@@H](CN(C)C)[C@@H](C)CN([C@H](C)CO)C(=O)c2cc(N(C)C)ccc2O1	1.3
C[C@H]1CCCCO[C@H](CN(C)C(=O)CCC(F)(F)F)[C@@H](C)CN([C@@H](C)CO)C(=O)c2cc(NC(=O)Nc3ccc4c(c3)OCO4)ccc2O1	-1.3
